CtBP-E1A blk = qHTS Assay for Inhibitors of the CtBP/E1A Interaction | 0.49% of 340,000 active | AlphaScreen GST-E1A/His-CtBP binding, 1536-well; active compounds read low; control for the full effect not named in the record | AID 651724, 2012 | activity change, % (no concentration beside the values) | CtBP / adenovirus E1A interaction (AlphaScreen); in the data active means activity change below about -65%; inconclusive means about -30% to -65%; inactive means above about -30%; further: on the % scale 0 is the no-effect control and ±100 the full control effect
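In 5 uL wells, 23 nL compound meets equimolar GST-E1A and His-CtBP (5X stock 125 nM each) for 2 h, 37 °C. Beads (5X, 50 ug/mL) then 1 h, 37 °C, dark.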
D2 ag = Beta-Arrestin HTS for Positive Allosteric Modulators of the Human D2 Dopamine Receptor: Agonists | D(2) dopamine receptor (Homo sapiens), P14416 | DiscoveRx PathHunter D2 beta-arrestin, luminescence, 90 min; 100% = 57 uM dopamine signal | activation, % (no concentration beside the values) | 0.084% of 360,000 active; in the data active = activation above about 40%; inconclusive = about 15% to 40%; inactive = below about 15%; further: compound concentration not given in the record; the text of the record calls up to 30% inactive
Target sequence (P14416 whole entry, looked up): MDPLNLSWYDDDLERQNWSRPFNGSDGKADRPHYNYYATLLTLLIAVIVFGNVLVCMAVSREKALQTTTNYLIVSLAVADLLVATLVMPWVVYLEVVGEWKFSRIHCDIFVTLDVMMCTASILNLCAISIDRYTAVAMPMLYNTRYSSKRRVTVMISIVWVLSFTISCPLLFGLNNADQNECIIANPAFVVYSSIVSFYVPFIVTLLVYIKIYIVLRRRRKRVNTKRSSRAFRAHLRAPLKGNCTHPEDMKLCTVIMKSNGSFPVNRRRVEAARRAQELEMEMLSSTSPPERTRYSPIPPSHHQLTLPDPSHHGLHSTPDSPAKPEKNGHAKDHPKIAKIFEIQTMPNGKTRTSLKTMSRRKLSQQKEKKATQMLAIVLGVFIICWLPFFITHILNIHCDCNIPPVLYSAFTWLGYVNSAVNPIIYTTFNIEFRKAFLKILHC
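Agonist mode: compounds alone added to overnight-plated D2 PathHunter cells for 90 min at 37 C, with 57 uM final dopamine (EC100) defining full response. Beta-arrestin recruitment detected by chemiluminescent reagent, read after 1 h at ambient temperature.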
D2 PAM = Beta-Arrestin HTS for Positive Allosteric Modulators of the Human D2 Dopamine Receptor: Potentiators; DiscoveRx D2 beta-arrestin cells, luminescence, 90 min; 100% = 57 uM dopamine signal; potentiation, % (concentration not given with the values); 0.23% of 360,000 active; active = potentiation of 50% or more; inconclusive = 30% to 50%; inactive = 30% or less;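 further: compound concentration not given in the record; tested on top of an EC20 dose of dopamine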
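D2 cells co-treated with compound plus 50 nM dopamine (EC20) for 90 min at 37 deg C to detect potentiation. Beta-arrestin recruitment was read as enzyme-fragment luminescence after 1 h at ambient temperature. Full response was set by 57 uM dopamine.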
Sfp PPTase inh = qHTS Assay for Inhibitors of Bacillus subtilis Sfp phosphopantetheinyl transferase (PPTase) | 4'-phosphopantetheinyl transferase ffp (Bacillus subtilis), Q9F4F7 | Biochemical Sfp PPTase activity, qHTS | Potency, µM, for inactives: max response, negative = inhibition, hits mostly inhibitors | 3.5% of 310,000 active | AID 1490, 2009; active means well fitted inhibition curve with a large enough effect; inconclusive means small, poorly fitted or top-dose-only effect, or another doubt; inactive means no such curve, though single readings can be large or run the other way;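 further: the enzyme is Sfp with the accession as filed and its product quenches rhodamine fluorescence; potency means the concentration at half of the fitted maximal effect; 0% = enzyme reaction without inhibitor and -100% = no enzyme wells; top concentration of the series not given in the record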
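Compounds were incubated with enzyme (final 15 nM) for 15 min at room temperature before substrate addition started the reaction. Fluorescence at 525 nm excitation, 598 nm emission was recorded immediately and after 30 minutes.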
Six1-Eya2 blk = qHTS Assay for Inhibitors of the Six1/Eya2 Interaction | activity change, % (concentration not given with the values) | AlphaScreen GST-Six1/His-Eya2 binding, biochemical; active compounds read low; control for the full effect not named in the record | AID 651725, 2012 | 0.56% of 360,000 active | Homeobox protein SIX1 (Homo sapiens) + Protein phosphatase EYA2 (Homo sapiens), …; in the data active = activity change below about -65%; inconclusive = about -30% to -65%; inactive = above about -30%; further: on the % scale 0 is the no-effect control and ±100 the full control effect
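Six1/Eya2 binding was read as AlphaScreen signal after compounds were pinned into GST-Six1 plus His-tagged Eya2 (5X stock 250/500 nM) in pH 8.0 Tris/NaCl/TCEP buffer, beads added, then incubated 1 h, 37 C, dark.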
TRPV1 PAM = HTS Assay for Compounds that Act as Potentiators of the Vanilloid Receptor 1 | 0.02% of 320,000 active | potentiation, % at 8.33 µM | TRPV1-expressing cells, Fluo-8 calcium influx, capsaicin EC20 potentiation; host cell line not named in the record; control for the full effect not named in the record | AID 540277, 2011 | Transient receptor potential cation channel subfamily V member 1 (Homo sapiens), Q8NER1; active means potentiation above 80%; inconclusive means 30% to 80%; inactive means below 30%; further: 0% is about no effect
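Fluo-8 calcium influx in TRPV1-expressing cells, kinetic read (ex 480/em 520 nm). Compound added and read 3 min for agonist activity, followed by capsaicin at EC20 final and 2 min further read for enhancement.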
PINK1 expr mod = A Quantitative High throughput Screen to Identify Chemical Modulators of PINK1 Expression. PINK1 immunofluorescence, high-content cytometry, 24 h. Potency, µM (series often up to 76.6 µM), for inactives: at the highest dose activation (PINK1 increase), actives largely listed as activators. 0.2% of 410,000 active; active = well fitted activation curve with a large enough effect; inconclusive = small, poorly fitted or top-dose-only effect; inactive = flat fitted curve, though single readings scatter; cell line not stated here;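 further: potency means the concentration at half of the fitted maximal effect; % of control where 0% means no effect; nearly all actives have a fitted effect of over 65% in size; a mitochondrial uncoupler was the plate control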
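PINK1 protein level read as immunofluorescence by microplate cytometer in a fixed, stained stable cell line after 24 h exposure to five compound concentrations, with CCCP as control.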
* marks the source's active call; other numbers are inactive results; ? = inconclusive; / = not tested or not shown; & = joins results of further samples; [ ] = another dose, or the depositor's remark. Hits appear at their usual frequency; about 3.7% have a hit in one of these screens.

SMILES,CtBP-E1A blk,D2 ag,D2 PAM,Sfp PPTase inh,Six1-Eya2 blk,TRPV1 PAM,PINK1 expr mod
Cc1cc(N)nc(SCC(=O)N2C(C)CCCC2C)n1 (stereo not drawn),4,0.5,-4,-4%,1,4,-0.1%
COc1ccc(CNCc2cccc(Oc3ccccc3)c2)cc1,24,-8.1,-7,-7%,18,-4,12%
COc1ccc(CNC(=O)c2ccc(Cn3cc(Br)cn3)o2)cc1,0,-8.2,-9,3%,-2,-1,0.5%
Cn1c(CSc2nc3ccccc3s2)n[nH]c1=S,-1,-1.6,-21,5%,-1,3,-2.8%
Cc1cccc(Nc2n[nH]c(=S)s2)c1C,8,-3.0,-8,20µM*,2,-8,/
Cc1ccc(C(=O)ONC(=O)c2ccc(Cl)cc2)cc1[N+](=O)[O-],0,?,5,16%,22,-5,3.2%
COc1ccc(N2CCN(CC(=O)N3CCC(C)CC3)CC2)cc1,-1,-2.6,-13,11%,2,27,?
Nc1[nH]c(C(=O)c2ccccc2)c(-c2cccnc2)c1C(=O)NCCc1ccc(Cl)cc1Cl,-12,/,/,/,0,/,-0.1%
CCn1c2ccccc2c2c3ncc4cccn4c3ccc21,100,1.4,4,?,43,7,16%
Cc1cc(NC(=O)c2ccco2)ccc1-n1cnnn1,6,-1.1,5,8%,6,-2,-1.1%
Cc1ccc(C(=O)OCC(=O)NCc2cccs2)s1,0,1.9,-1,/,9,-25,2.2%
CCOC(=O)C1CCCN(CC(O)COCc2ccccc2OC)C1 (stereo not drawn),-1,-3.2,-10,6%,-16,9,0.6%
O=C(Cc1nc(-c2ccc(Br)s2)cs1)NCCN1CCOCC1,0,-3.6,-12,50µM*,6,-17,-1.9%
Cc1cc(C(=O)OCc2nnc(-c3ccccc3)o2)c(C)n1-c1ccccc1,-8,2.3,9,-4%,-6,6,-0.8%
O=C(COC(=O)Cc1ccc(Cl)cc1)NCc1ccc(Cl)cc1,-22,-2.7,-11,/,19,/,2.7%
CCN1C(=O)/C(=C/c2nc3ccccc3c(=O)n2-c2ccc(C)cc2)c2ccccc21,1,-2.2,-11,-8%,17,-2,?
COc1ccccc1NS(=O)(=O)c1ccc2c(c1)N(C(C)=O)CC(C)S2 (stereo not drawn),/,5.8,-9,12%,-2,-17,0.5%
Cc1ccc(NC(=O)Cn2nc(C)c(S(=O)(=O)N(C)C)c2C)cc1C,/,-1.6,-19,15%,1,-7,-1.5%
COc1cccc(C(=O)COc2ccc(NC(=O)c3cccs3)cc2)c1,-10,-2.2,14,14%,-5,-5,-3.0%
COc1ccccc1-c1c(C)nn2c(N)c(-c3ccccc3)cnc12,8,-1.0,-17,1%,3,-11,-2.3%
CC(=O)Nc1ccc(S(=O)(=O)Nc2ccc3c(c2)n(C)c(=O)n3C)c(C)c1,-4,-2.6,4,9%,-8,6,1.0%&-1.7%
CCOC(=O)c1sc(=S)n(CC)c1NC(=O)c1ccccc1C,/,-3.3,-13,6%,6,-14,6.0%
COc1ccc2c(c1)CCc1c(C(=O)N3CCCC3)noc1-2,8,0.2,8,5%,-1,-15,9.0%[38.3 µM]
CN(C)S(=O)(=O)N1CCN(C(=O)N(c2ccccc2)c2ccccc2)CC1,-6,0.5,-6,16%,-7,-4,0.6%[38.3 µM]
CC(=O)Nc1ccc(S(=O)(=O)Oc2ccc(Br)cc2C(=S)N2CCOCC2)cc1,-8,-3.2,10,-16%,-5,-12,2.2%
CC(C)NC(=O)CCn1c(=S)oc2ccccc21,/,-0.6,-7,6%,-1,7,1.5%
Cc1ccc(Oc2nsnc2N2CCOCC2)cc1,6,-1.3,4,-11%,0,-12,/
CC1(C(=O)NS(=O)(=O)c2cccc(OC(F)F)c2)CCN1C(=O)C1CC1 (stereo not drawn),-1,-6.4,0,/,4,/,-0.4%
CCn1c(SCC(=O)Nc2ccccc2-c2ccccc2)nnc1-c1ccoc1C,3,-4.4,-4,2%,-6,11,-0.8%
O=C(Nc1ncnc2sc3c(c12)CCCCC3)c1ccc(F)cc1,0,-0.2,-5,6%,19,-10,11%
COCc1c(C(N)=O)nnn1-c1nonc1N,43,-1.6,-14,-3%,15,/,-1.0%[38.3 µM]
CN(C)c1cccc(NC(=O)C2Cc3c(-c4ccccc4Oc4ccccc4)ccnc3O2)c1 (stereo not drawn),?,-3.7,0,/,?,/,0.9%
Cn1c(SCC(=O)NCc2ccc3c(c2)OCO3)nc2c(c1=O)SCC2,5,-2.2,12,3%,5,16,0.7%
CCOc1ccc(OC(=O)c2ccc3c(=O)n4c(nc3c2)CCC4)cc1,-10,0.7,-38,/,4,-8,-2.0%
O=C(Cc1ccc(Cl)cc1)Nc1ccccc1Sc1ccccc1,30,-7.5,-9,-11%,41,-3,11%
CCNC(=O)COC(=O)c1ccc(S(=O)(=O)N2CCCCCC2)cc1,6,-3.2,-11,8%,5,-1,0.4%
C/C(=N\NC(=O)CCn1nnc2ccccc21)c1ccco1,7,-3.6,-5,7%,0,0,6.7%
O=C(NCC1CCCO1)C(c1ccncc1)N(Cc1cccs1)C(=O)CN1C(=O)c2ccccc2S1(=O)=O (stereo not drawn),22,-3.0,-8,-15%,7,-4,-0.5%
COc1ccc(S(=O)(=O)N2CCC(C(=O)NC3CC3)CC2)cc1,6,5.6,-2,-3%,-1,-9,0.2%
Cc1ccccc1C(=O)NC1CC2CCC(C1)N2Cc1ccccc1 (stereo not drawn),-2,-5.2,-1,17%,6,-2,1.1%
Cn1nnnc1SCC(=O)Nc1ccc(Br)cc1Br,-1,1.1,-3,/,0,/,1.6%
Cc1cc(C)n(-c2nc3ccccc3c(=O)n2OCCOc2ccccc2)n1,0,-2.7,-2,-19%,-1,-1,0.5%
CC(=O)c1c(C)[nH]c(C(=O)OCc2cccc(C)c2)c1C,-3,-1.6,-4,-2%,-12,-5,-0.8%
CCOC(=O)Cc1csc(NC(=O)Nc2cccs2)n1,-3,1.4,-9,4%,2,18,-0.8%
COc1cccc(/C=N/N2CCN(c3ccc(Cl)cc3)CC2)c1OC,-3,-2.5,3,4%,-4,10,2.3%
COc1cc(CNC(=O)OCC(C)C)cc(OC)c1OC,31,-1.8,-24,0%,24,-16,-0.5%
COCCN(C(=O)CCC(=O)Nc1nccs1)C(C(=O)NCCC(C)C)c1ccc(F)cc1 (stereo not drawn),0,-4.9,0,10%,8,-7,-3.1%
CS(=O)(=O)N1CCCC(C(=O)NCCc2ccccc2)C1 (stereo not drawn),18,0.4,-15,7%,-3,6,-0.3%[38.3 µM]
c1coc(CNCCCN2CCOCC2)c1,5,-1.1,-3,4%,4,8,-3.2%[38.3 µM]
O=C1N/C(=C/c2cccn2-c2ccccc2)C(=O)N1c1cccc(Cl)c1,-2,-4.9,9,13%,2,-15,?

The list goes on.
SMILES,CtBP-E1A blk,D2 ag,D2 PAM,Sfp PPTase inh,Six1-Eya2 blk,TRPV1 PAM,PINK1 expr mod
Cc1ccc(S(=O)(=O)NCC(=O)OCC(=O)N(C)C2CCS(=O)(=O)C2)cc1 (stereo not drawn),5,2.0,0,/,-2,-7,0.4%
Cc1c(Cl)cccc1Nc1nc(NCCO)c2ccccc2n1,-4,1.3,-20,-21%,1,-10,0.0%
Cc1ccc(S(=O)(=O)C(C#N)c2nc3ccccc3nc2N2CCC(C)CC2)cc1 (stereo not drawn),-1,-0.8,-10,7%,12,2,-0.3%
O=C(COC(=O)c1ccccc1F)Nc1ccc2c(c1)OCCO2,-16,-0.8,-67,/,4,-15,-0.2%
CSc1ncc2c(n1)-c1cc(C)ccc1SC2,-10,-1.4,-7,3%,1,3,-2.1%
Cc1cc(-n2c(SCCC#N)nnc2-c2cccnc2)ccc1Cl,2,-2.7,-10,20%,0,-24,3.7%[38.3 µM]
COc1ccc(/C=C(\C#N)C(=O)OCC(=O)NC2CC2)cc1,/,-5.1,-5,8%,6,1,0.3%
c1ccc(Cn2c(CN3CCCC3)nc3ccccc32)cc1,-1,-1.8,-1,20%,3,-10,-1.6%
Cc1ccc(CNC(=O)c2ccc(N3CCC4(CC3)CC(c3cccc(Br)c3)=NO4)c(NC(=O)c3ccc(Cl)c([N+](=O)[O-])c3)c2)cc1,2,-2.1,-6,/,5,/,0.3%
CC(=O)c1c(N2CCN(Cc3ccccc3)CC2)nc(=S)n(-c2ccccc2)c1C,-9,-7.6,-3,5%,9,-23,6.4%
CCCc1nc2c(C)cc(Br)cn2c1Cc1ccc(OC)cc1C,-1,-6.8,-8,/,-10,/,0.8%

Screening data from PubChem.
